Screening data deposited in PubChem BioAssay by National Center for Advancing Translational Sciences (NCATS).
Rango dissoc inh – qHTS Assay for Inhibitors of RanGTP induced Rango (Ran-regulated importin-beta cargo) - Importin beta complex dissociation; Potency, µM (doses to about 46.1 µM), for the others: top-dose activity change, negative = inhibition; Snurportin-1 (Homo sapiens) + GTP-binding nuclear protein Ran (Homo sapiens) + Importin …; Biochemical FRET Rango-importin beta, RanGTP-induced dissociation; 340,000 tested, 0.071% active; active means falling FRET ratio curve, often poorly fitted, with flat reads before Ran was added; inconclusive means other falling curves, or compound fluorescence or quenching; inactive means flat or rising ratio curve;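 also: potency is read from the fitted curve at half-maximal effect; % of control where 0% means no effect; nearly all actives have a fitted effect of over 45% in size; -100% = wells without RanGTP and RCC1; the record marks most hits as doubtful in a second field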
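Two FRET readings bracket the reaction: one 5 min after compound meets Rango–importin beta, another 45 min after RanGTP-RCC1 (0.6 uM Ran, 0.2 uM RCC1, 2 mM GTP) is added. Only the second defines inhibition.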
Rango complex inh – qHTS Assay for Inhibitors of Rango (Ran-regulated importin-beta cargo) - Importin beta complex formation. Rango CFP/YFP FRET sensor + importin beta, 45 min. Potency, µM (doses to about 92.2 µM), for inactives: top-dose inhibition of complex formation. 340,000 tested, 0.031% active. AID 540263, 2011; active = rising FRET ratio curve, often small or poorly fitted; inconclusive = mostly compound fluorescence or quenching in the first reads; inactive = flat curves in all reads;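 also: potency is read from the fitted curve at half-maximal effect; 0% = DMSO wells and 100% = buffer wells lacking importin beta; nearly all actives have a fitted effect of over 15% in size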
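FRET biosensor Rango (snurportin 1 IBB between N-terminal EYFP and C-terminal Cerulean), 50 nM in PBS/1 mM DTT/0.02% Tween-20/0.1% BSA, preincubated 5 min RT with compound; 0.125 microM importin beta added, 45 min RT, CFP/YFP FRET ratio read.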
GLA inh pH 4.5 – qHTS Assay for Inhibitors of Human alpha-Galactosidase at pH 4.5; Alpha-galactosidase A (Homo sapiens), P06280; purified enzyme, 4-MU-alpha-Gal fluorescence, pH 4.5; activity change, negative = inhibition, % at 105 µM; 230,000 tested, under 10 active; AID 1467, 2008; inconclusive = small, poorly fitted or top-dose-only inhibition, or a rising curve; inactive = flat fitted curve, though single readings scatter; no compound was filed as active;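 also: 0% = full activity with enzyme and -100% = basal without enzyme; dose as in the result columns while the protocol names 77 µM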
Target sequence (P06280 whole entry, looked up): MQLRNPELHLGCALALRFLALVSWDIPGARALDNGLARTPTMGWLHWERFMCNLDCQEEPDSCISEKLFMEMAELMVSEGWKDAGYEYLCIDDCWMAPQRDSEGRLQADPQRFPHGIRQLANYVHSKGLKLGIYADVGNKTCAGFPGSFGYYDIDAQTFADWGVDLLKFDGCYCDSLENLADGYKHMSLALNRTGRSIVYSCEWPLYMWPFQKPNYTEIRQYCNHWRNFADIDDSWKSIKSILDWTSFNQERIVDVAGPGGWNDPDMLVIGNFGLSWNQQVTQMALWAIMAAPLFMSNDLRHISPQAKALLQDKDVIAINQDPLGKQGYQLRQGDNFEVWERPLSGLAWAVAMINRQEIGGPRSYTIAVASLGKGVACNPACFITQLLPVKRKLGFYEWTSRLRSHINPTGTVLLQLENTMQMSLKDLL
miR-21 reporter – qHTS Assay for Modulators of miRNAs and/orActivators of miR-21 | HeLa miR-21 FLuc reporter, luciferase, 48 h | Potency, µM (titrated, usually from 38.3 µM), inactives show at the highest dose reporter change, positive = more light | 340,000 tested, under 10 active | AID 2288, 2010; active = well fitted rising curve with a large enough effect; inconclusive = small, poorly fitted or top-dose-only effect; inactive = no such curve, though single readings can be large or run the other way;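 also: % of control where 0% means no effect; miR-21 action dims this reporter so a rising signal means less miR-21 action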
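Using DMEM plus 10% FBS, HeLa miR-21-FLuc cells are incubated with test compounds (final up to about 40uM) for 48 hours; firefly luciferase signal is then imaged following reagent-mediated lysis.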
* hit, by the source's call; ? = inconclusive; · = not tested or not shown; & = joins results of further samples. The list is partial. The share of hits here may be higher or lower than overall.

Rango dissoc inh,Rango complex inh,SMILES,GLA inh pH 4.5,miR-21 reporter
51%,0.9%,CC[C@]12c3[nH]c4cc(CCC(=O)N(C)C)ccc4c3CCN1C(=O)[C@@H](CC(=O)NCCCn1ccnc1)C[C@@H]2C(=O)N1CCN(C(=O)C2CC2)CC1,·,·
0%,-0.1%,CCN1CCCC1CNC(=O)CCc1nnc(CCC2CCCCC2)o1 (stereo not given),-18,-3%
-15%,0.9%,CN(C)CCCN(C(=O)c1ccc(N2C(=O)CCC2=O)cc1)c1nc2c(F)cccc2s1,-4,-5%
-17%,-2.3%,COc1ccc(-c2c(-c3ccsc3)oc(=O)c3cc(OC)c(OC)cc23)cn1,·,·
12%,1.2%,O=C(Nc1cccc2ccccc12)c1ccc(F)cc1,·,-29%
8%,0.3%,COc1ccc(NS(=O)(=O)c2cc(NC(=O)c3cc(F)c(F)cc3Cl)ccc2N2CCOCC2)cc1,·,·
2%,-1.6%,CCOc1ccc(N(CC(=O)NCC2CCCO2)S(=O)(=O)c2ccc(C)cc2)cc1 (stereo not given),·,-1%
0%,1.9%,O=C(CSc1nc2ccccc2o1)NC1CCCC1,-10,-1%
0%,0.2%,CCn1nc(C)c(Br)c1-c1nc(CS(=O)(=O)c2ccc(F)cc2)no1,-1,1%
5%,0.6%,COc1cc(C(O)CO)ccc1O (stereo not given),-3,·
-7%,?,Cn1c(=O)c2c(nc(SCc3cccnc3)n2Cc2ccc(F)cc2)n(C)c1=O,0,1%
-14%,2.8%,CCOc1ccc(N2CC(C(=O)Nc3ccccc3C(=O)N3CCOCC3)CC2=O)cc1 (stereo not given),·,-2%
-1%,-1.0%,Cc1ccc(NS(=O)(=O)c2ccc(-n3cccn3)cc2)c(C)c1,·,4%
-4%,-0.5%,O=C(NCC1CCCO1)C1CCN(C2CCN(C(=O)C3CCCCC3)CC2)CC1 (stereo not given),3,-1%
-6%,1.7%,C=CCN(C(=O)Nc1ccc2oc(C)nc2c1)c1ccccc1,1,-44%
?,-3.4%,COC(=O)CSC1=C(C#N)C(c2ccc(Cl)cc2)C(C(=O)OC)C(=O)N1 (stereo not given),1,-4%
-1%,1.3%,CC(C)Cn1c(CN2CCN(C)C(CCO)C2)nc2ccccc21 (stereo not given),·,1%
-4%,-0.3%,CCC1CC(C(=O)Nc2ccccc2)C(=O)O1 (stereo not given),·,·
-11%,0.8%,Cc1ccc(S(=O)(=O)c2nc(-c3ccccc3Cl)oc2N2CCN(C)CC2)cc1,·,·
0%,3.2%,COc1ccc(N2CCN(Cc3cc(=O)oc4ccc(C)cc34)CC2)cc1,5,-1%
-11%,0.1%,Brc1cccc(-c2n[nH]c(-c3ccccc3)n2)c1,19,-38%
-7%,2.2%,Cc1ccc(SCC(=O)NC2CCS(=O)(=O)C2)cc1 (stereo not given),4,-5%
4%,0.0%,Cc1nn(Cc2ccccc2)c(C)c1C(=O)N1CCN(S(=O)(=O)/C=C/c2ccccc2)CC1,·,·
-12%,3.8%,CN(C)CC#CCOC(c1ccccc1)c1ccccc1,-10,0%
-6%,2.2%,CN(C(=S)Nc1ccc(Oc2ccccc2)cc1)C1CCCCC1,3,-12%
13%,-0.6%,O=C(Nc1ccc(S(=O)(=O)NCC2CCCO2)cc1)c1ccccc1 (stereo not given),-15,0%
-1%,-3.2%,CC(=O)N1Cc2cc([N+](=O)[O-])ccc2Oc2ccccc21,7,1%
2%,5.7%,CC(C)[C@H](NC(=O)c1ccccc1)C(=O)OCC(=O)Nc1ncc(Cl)cc1Cl,·,·
0%,-0.5%,C[C@@H]1CCCCCCCCC(=O)OCCN1C(=O)OC(C)(C)C,·,·
24%,-6.0%,COc1ccc(CC(=O)N(C)C2CCCCC2)cc1S(=O)(=O)N1CCOCC1,1,3%
6%,7.6%,CCOC(=O)N1CCN(C(=O)CSc2ccc3nnc(-c4ccncc4)n3n2)CC1,-1,0%
9%,-0.1%,CC(C)(C)NC(=O)c1ccc2c3c(cccc13)CC2,6,-14%
-12%,5.5%,Cc1ccc(S(=O)(=O)NCC(C)n2cncn2)cc1 (stereo not given),·,0%
-9%,0.1%,Cn1c(N)c(S(=O)(=O)c2ccc(Br)cc2)c2nc3ccccc3nc21,?,0%
-1%,-1.5%,COc1ccc(CCN2CC(C(=O)N(C)C3CCOCC3)CCC2=O)cc1 (stereo not given),·,-3%
1%,-0.5%,COc1ccc(C(=O)NC(=S)Nc2ccc(N3CCCC3)cc2)cc1OC,6,-3%
12%,-1.8%,Cc1cccc(Nc2nc(N)c([N+](=O)[O-])c(NCCO)n2)c1,-6,-25%
-6%,-0.3%,O=C(OCC(=O)N1CCc2ccccc21)c1c2c(nc3ccccc13)CCCCC2,-10,6%
10%,-2.9%,COc1ccc(Oc2ccc3c(C(F)(F)F)cc(C(F)(F)F)nc3n2)cc1,-4,0%
1%,1.8%,O=C(c1cccc(Cl)c1)N1CCC(=O)N(C(COCc2cccc(Cl)c2)Cc2ccccc2)CC1 (stereo not given),-4,3%
5%,4.2%,N=c1c2c3c(sc2ncn1Cc1ccco1)CCCCC3,6,-28%
-12%,6.0%,Cc1cc(C)c(C)c(C(=O)COC(=O)CNC(=O)CN2C(=O)c3ccccc3C2=O)c1C,6,-4%
1%,0.5%,CCN(c1ccccc1)S(=O)(=O)c1cc2c(cc1C)n(C)c(=O)c(=O)n2C,·,1%
-5%,-1.3%,CCCCC1(CO)C(=O)N(c2ccccc2)N(c2ccccc2)C1=O,3,-7%
-12%,-3.2%,O=C(Nc1cccc2ncccc12)c1ccc(Br)c([N+](=O)[O-])c1,-1,1%
23%,0.0%,Cc1cc(C)cc(NC(=O)COC(=O)c2ccc3c(c2)OCCO3)c1,·,·
-16%,0.8%,CCOC(=O)N1CCN(C(=O)CSc2nnc(Cc3ccccc3)o2)CC1,11,3%
1%,0.1%,Cc1cccc(C)c1NC(=O)CSc1nnc([C@H](C)NC(=O)OC(C)(C)C)o1,-3,-4%
-11%,-0.5%,COc1ccc(N(CC(=O)NCc2ccco2)S(=O)(=O)c2ccc(C)cc2)cc1OC,·,-2%
-14%,-0.2%,CN(C)c1ccc(C(=O)OCC(=O)N2CCOCC2)cc1,2,-38%

By substructure: the compounds so far with an aryl thioether with sulfur outside any ring
Rango dissoc inh,Rango complex inh,SMILES,GLA inh pH 4.5,miR-21 reporter
0%,1.9%,O=C(CSc1nc2ccccc2o1)NC1CCCC1,-10,-1%
-7%,?,Cn1c(=O)c2c(nc(SCc3cccnc3)n2Cc2ccc(F)cc2)n(C)c1=O,0,1%
-7%,2.2%,Cc1ccc(SCC(=O)NC2CCS(=O)(=O)C2)cc1 (stereo not given),4,-5%
6%,7.6%,CCOC(=O)N1CCN(C(=O)CSc2ccc3nnc(-c4ccncc4)n3n2)CC1,-1,0%
-16%,0.8%,CCOC(=O)N1CCN(C(=O)CSc2nnc(Cc3ccccc3)o2)CC1,11,3%
1%,0.1%,Cc1cccc(C)c1NC(=O)CSc1nnc([C@H](C)NC(=O)OC(C)(C)C)o1,-3,-4%

Taken from above:
Value of CCOC(=O)N1CCN(C(=O)CSc2ccc3nnc(-c4ccncc4)n3n2)CC1 in Rango complex inh: 7.6%
Value of Cc1cc(C)cc(NC(=O)COC(=O)c2ccc3c(c2)OCCO3)c1 in Rango dissoc inh: 23%
Value of COc1ccc(CC(=O)N(C)C2CCCCC2)cc1S(=O)(=O)N1CCOCC1 in miR-21 reporter: 3%
Value of Cc1cccc(Nc2nc(N)c([N+](=O)[O-])c(NCCO)n2)c1 in Rango dissoc inh: 12%
Value of COc1ccc(N(CC(=O)NCc2ccco2)S(=O)(=O)c2ccc(C)cc2)cc1OC in Rango complex inh: -0.5%
Value of COc1ccc(CCN2CC(C(=O)N(C)C3CCOCC3)CCC2=O)cc1 (stereo not given) in Rango complex inh: -1.5%
Value of O=C(Nc1ccc(S(=O)(=O)NCC2CCCO2)cc1)c1ccccc1 (stereo not given) in Rango dissoc inh: 13%

(list continues)
Rango dissoc inh,Rango complex inh,SMILES,GLA inh pH 4.5,miR-21 reporter
-8%,-3.7%,CN(CC(=O)Nc1ccc(F)c(F)c1F)C(=O)CN1C(=O)NC2(CCCC2)C1=O,·,·
-2%,3.4%,CCOC(=O)c1c(NC(=O)CN2CCCc3ccccc32)sc(C(C)=O)c1C,-1,-1%
-1%,0.6%,O=C(NCCc1ccccc1)C1c2ccccc2C(=O)N1Cc1cccs1 (stereo not given),0,3%
-8%,0.1%,COC(=O)C(C(=O)OC)C(C(C)C)C(C(=O)OC)C(=O)OC,5,-1%
-9%,1.9%,CCOC(=O)C1=C(C)NC(C)=C(C(=O)OCC)C1c1ccc(Br)o1,-5,0%
?,?,CCOC(=O)c1cc2c(=O)n3ccccc3nc2n(CCOC)c1=NC(=O)c1c(-c2c(F)cccc2Cl)noc1C,10,-8%&25%
1%,0.6%,COc1ccccc1C(=O)Nc1ccc(S(=O)(=O)NC2=NCCCCC2)cc1,-15,-4%
3%,-0.7%,O=C(CSc1ncnc2c1cnn2CCc1ccccc1)Nc1cccc(C(F)(F)F)c1,-7,-4%
11%,-0.3%,CC(=O)NS(=O)(=O)c1ccc(NC(=O)/C=C/c2ccccc2Cl)cc1,-6,0%
9%,?,COc1cc(/C=C2\SC(=S)N(CCC(=O)Nc3ccccc3)C2=O)cc(OC)c1OC,6,-2%
9%,1.7%,CCOC(=O)C1C(c2ccccc2)NC(=S)NC1(C)O (stereo not given),6,-1%
-14%,4.8%,Cc1ccc(-n2nc3c(=O)n(C(C)C(=O)NCCCc4ccccc4)nc(C)c3c2C)cc1 (stereo not given),·,24%
52%,-2.7%,CC[C@]1(c2ccccc2)C(=O)N(C(=O)OC)N1C(=O)OC,·,0%
-2%,-2.5%,CCOc1ccccc1N1CCN(C(=O)c2ccccc2SCC(=O)N2CCCC2)CC1,·,-5%
17%,-1.1%,Nn1c(Cc2cccc3ccccc23)nnc1SCn1nnc2ccccc2c1=O,-1,-6%
1%,-0.9%,Cc1ncc(CO)c2c1Oc1nc(-c3ccccc3F)nc(SCC(=O)N(C)c3ccccc3)c1C2,·,8%
-17%,-1.8%,NC(=O)c1cccnc1Nc1cccc([N+](=O)[O-])c1,-5,-77%
?,?,COc1ccc(-c2cc(C(F)(F)F)c(C#N)c(=O)[nH]2)cc1,?,0%
32%,0.7%,Cc1cccc(C(=O)OCC(=O)N(C)c2ccccc2)c1C,·,-19%
2%,12%,COc1cccc(Nc2nc(-c3ccccc3O)nc3ccccc23)c1,·,-6%
3%,-1.4%,C/C(=N\NC(=O)c1nn(C)c(C)c1Br)c1ccc(NC(=O)c2ccccc2F)cc1,0,-54%
4%,?,CCN(CC)S(=O)(=O)c1ccc(N2CCOCC2)c(NC(=O)c2ccc(C#N)cc2)c1,-1,-8%

Some of the entries above, set out differently.
Values run as follows: Rango dissoc inh	Rango complex inh	GLA inh pH 4.5	miR-21 reporter
- CCOC(=O)C1=C(C)NC(C)=C(C(=O)OCC)C1c1ccc(Br)o1
    -9%	1.9%	-5	0%
- CCOC(=O)c1c(NC(=O)CN2CCCc3ccccc32)sc(C(C)=O)c1C
    -2%	3.4%	-1	-1%
- O=C(NCCc1ccccc1)C1c2ccccc2C(=O)N1Cc1cccs1 (stereo not given)
    -1%	0.6%	0	3%
